AmpC nodet inh = blocks E. coli AmpC beta-lactamase in absence of detergent; actives 1.8% (n = 71,000); P00811; AmpC nitrocefin hydrolysis, absorbance 480 nm, no detergent; potencies from a single point are estimates; AID 585; Potency, µM (doses to about 28.7 µM), inactives show at the highest dose activity change, negative = inhibition; active = falling curve, for most hits resting on a single point; inconclusive = weak or doubtful change; inactive = flat or rising curve; further: % of control where 0% means no effect; about half of the hits show no inhibition at the top dose; a quarter of the inactives give rising signals
Target sequence (P00811 whole entry, looked up): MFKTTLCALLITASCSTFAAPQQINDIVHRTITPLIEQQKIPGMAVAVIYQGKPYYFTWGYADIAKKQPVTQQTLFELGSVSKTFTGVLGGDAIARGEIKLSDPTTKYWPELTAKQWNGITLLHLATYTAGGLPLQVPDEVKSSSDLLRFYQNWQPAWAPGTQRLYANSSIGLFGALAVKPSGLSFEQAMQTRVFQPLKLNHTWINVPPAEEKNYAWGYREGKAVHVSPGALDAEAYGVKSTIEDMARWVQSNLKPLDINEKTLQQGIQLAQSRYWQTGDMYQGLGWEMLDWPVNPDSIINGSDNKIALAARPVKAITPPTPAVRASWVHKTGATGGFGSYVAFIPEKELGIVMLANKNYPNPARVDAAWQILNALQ
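AmpC in 20 mM phosphate buffer pH 7.0 was preincubated 15 min at room temperature with compounds. Nitrocefin (800 uM stock) was then added and hydrolysis followed at 480 nm every 20 s for 4 min.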
Active calls of the source: *; ? = inconclusive; [ ] = another dose, or the depositor's remark. Potency means the concentration at half of the fitted maximal effect.

SMILES	AmpC nodet inh
O=S(=O)(c1ccc2c(c1)OCCO2)N(Cc1ccc(F)cc1)Cc1nnc(-c2cccs2)o1	5.9%
O=C(Nc1ccc(Oc2ccc(NC(=O)c3ccco3)c(NC(=O)c3ccco3)c2)cc1)c1ccco1	-2.3%
CSCC[C@H](NC(=O)OC(C)(C)C)c1nnc(SCc2cccc(F)c2)o1	14.3%
COc1ccc2nc(NCCO)[nH]c2c1	-2.3%
O=C(Nc1ccccc1-c1nnn(CC(=O)N2CCCc3ccccc32)n1)c1ccco1	-6.1%
Cc1nc2cc(C(F)(F)F)ccc2n1C1CCN(Cc2nnnn2Cc2ccc3c(c2)OCO3)CC1	136.9%
COc1ccc(Cl)cc1NC(=O)CSc1nnc(-c2ccncc2)n1CC1CCCO1 (stereo unspecified)	110.3%
Cc1ccn(S(=O)(=O)c2ccc(C(C)(C)C)cc2)n1	10.2%
COCCn1nnnc1C(c1cc2c(C)cc(C)cc2[nH]c1=O)N1CCCCCC1 (stereo unspecified)	40.5%
O=C(NC12CC3CC(CC(C3)C1)C2)c1cncc(O)c1	-5.7%
c1cn2cc(-c3ccc4c(c3)OCO4)nc2s1	-3.3%
NC(=O)C1CCN(C(=O)CCCCCn2c(=O)[nH]c3ccsc3c2=O)CC1	-1.1%
CC1CN(C(=O)c2ccncc2)CC(C)O1 (stereo unspecified)	13.0%
COc1ccc(CN2CCCC2C(=O)Nc2ccc(OC)c(OC)c2)cc1OC (stereo unspecified)	24.2%
CCOC(=O)CCc1c(C)n(CC)c2cc(-c3ccccc3OC)nn2c1=O	16.7%
CS(=O)(=O)N(CC(=O)NCCSCc1c(F)cccc1Cl)c1ccc2c(c1)OCO2	35.5%
CN1CCN(CC(O)COc2ccc(OCC(O)CN3CCN(C)CC3)cc2)CC1 (stereo unspecified)	-4.1%
COc1ccc(-c2cc(C(F)(F)F)nc(S(=O)(=O)CCC(=O)N3CCOCC3)n2)cc1	67.2%
Cc1c(-c2cccs2)[n+](=O)c2c(n1[O-])CCCCC2	-2.4%
CCOc1ccccc1NC(=O)N1CCC(n2nnc3cc(C)ccc32)CC1	46.5%
Cn1c(=O)cc(OCCCC(=O)NCCCN2CCN(Cc3ccccc3)CC2)c2ccccc21	92.5%
O=[N+]([O-])c1ccc2cn[nH]c2c1	-8.7%
CCCc1cc(=O)n2[nH]c(NCc3cccs3)nc2n1	-8.9%
C=C(CC1([C@@H](NP(=O)(c2ccccc2)c2ccccc2)[C@H]2C[C@@H]2CCCC)CC1)c1cccc(OC)c1	6.2%
Cc1c(NC(=O)CN2c3cccc4cccc(c34)S2(=O)=O)c(=O)n(-c2ccccc2)n1C	-0.1%
O=C(c1cccc(F)c1)N1CCC2(CC1)CN(C(c1ccccc1)c1ccccc1)C2	8.2%
COc1ccc(C)cc1Cn1c(S(C)(=O)=O)nc2ccccc21	39.1%
CC1CCN(C(=O)COc2ccccc2F)CC1	11.2%
COc1ccc(C2C3=C(CCCC3=O)Nc3nc4ccccc4n32)c(OC)c1OC (stereo unspecified)	38.7%
Nc1nc(SCC(=O)N2CCCc3ccccc32)[nH]c(=O)c1-c1ccccc1	0.1%
CCn1ncc(Br)c1C(=O)Nc1sc2c(c1C(=O)OC)CCC2	-3.4%
FC(F)(F)c1ccccc1-c1nc(NCc2cccnc2)c2ccccc2n1	26.1%
CCOc1ccccc1Nc1nc2ccccc2[nH]1	-9.2%
COc1cccc(-c2cncnc2N(C)Cc2ccco2)c1	36.0%
COCCSc1ccccc1C(=O)Nc1nnc(C)s1	4.3%
Cc1cc(C)nc(N2CCN(c3nnnn3-c3ccccc3)CC2)n1	25.6%
Cn1nc(C(=O)Nc2sccc2C(N)=O)ccc1=O	-3.5%
Cc1oc(-c2ccc(Cl)cc2)nc1CN1CCCC(C(=O)N2CCN(C(=O)c3ccco3)CC2)C1 (stereo unspecified)	138.8%
COc1cc(C2NCc3ccccc3-n3cccc32)ccc1O (stereo unspecified)	-16.3%
O=[N+]([O-])c1cccc(/C=N\Nc2ccc3ccccc3n2)c1O	-9.9%[5.75 µM]
CCCCCCNS(=O)(=O)c1ccc(OC)c(OC)c1	7.8%
CCOc1ccc(C(=O)N2CCC(C(=O)c3ccc4c(c3)OCCO4)CC2)cc1	92.5%
CN1CCc2cc(Cl)c(O)cc2[C@@H](c2ccccc2)C1	60.5%
CN1CCN(CC#CCC(O)(c2ccccc2)C2CCCC2)CC1 (stereo unspecified)	22.3%
CC(C)(CCc1nc2ccccc2[nH]1)C(=O)O	3.1%[5.75 µM]
CCOCCCNC(=O)C1CCN(S(=O)(=O)c2c(C)noc2/C=C\c2ccc(OC)cc2)CC1	120.4%
COc1cc2c(cc1OC)C(c1cc3cc(OC)c(OC)cc3[nH]c1=O)N(C(=O)C1CC1)CC2 (stereo unspecified)	127.3%
COc1cccc(OCC(O)CN2C(C)CCCC2C)c1 (stereo unspecified)	-2.0%
COCCNc1nc(-c2c(C)noc2C)nc2ccccc12	11.8%
COc1cc2c(c(OC)c1OC)-c1ccc(O)c(=O)cc1[C@@H](NC(C)=O)CC2	8.2%
Cc1ccc(S(=O)(=O)NCCC(=O)OCn2nnc3ccccc3c2=O)cc1	-4.6%
CCn1c2ccccc2c2cc(NC(=O)C3CCN(S(=O)(=O)c4cccs4)CC3)ccc21	12.6µM*
O=c1cc(CO)oc(CN2CCN(c3ccccc3)CC2)c1O	-13.0%
Cc1ccc(S(=O)(=O)N2CCC(C(=O)N[C@@H](C)C(=O)NC3CCCCC3)CC2)cc1	28.5%
COC(=O)[C@H](NC(=O)c1cc(-c2ccccc2)nc2ccccc12)c1ccccc1	33.8%
CCC(C)(C)n1nnnc1C(c1ccc(N(C)C)cc1)N1CCN(C2CCCCC2)CC1 (stereo unspecified)	32.3%
COc1ccccc1-c1noc(-c2ccco2)n1	15.4%
O=C(NCc1ccc2c(c1)OCO2)c1ccc2c(c1)C(=O)N(CC1CCCO1)C2=O (stereo unspecified)	11.0%
Cc1c(Nc2nc3ccccc3nc2N2CCN(c3ccccc3)CC2)c(=O)n(-c2ccccc2)n1C	31.3%
COc1ccccc1CN1CC[C@@]2(CCCN(C(=O)c3cnccn3)C2)C1	10.2%

(listing goes on)
SMILES	AmpC nodet inh
Cc1ccc(Nc2nc(=O)c3cccnc3s2)cc1	-13.7%
Cc1ccc(C2C(C#N)=C(N)Oc3n[nH]c(-c4cccs4)c32)s1 (stereo unspecified)	?
O=C(CSc1nc2ccsc2c(=O)n1NC(=O)c1ccccc1)NCc1ccco1	-20.5%
COC(=O)c1ccccc1COn1c(=O)c(C)[n+]([O-])c2ccccc21	11.3%
CCc1nc(SCC(N)=O)c2c(=O)n(C)c(=O)n(C)c2n1	-3.0%
COc1cc(OC)nc(NC(=O)C(C)C)n1	11.0%
Nc1nc2c(c(=O)[nH]1)CN(c1ccc(S(N)(=O)=O)cc1)CN2	2.6%[5.75 µM]
CCOC(=O)c1sc2nc(SCC#N)n(CCCN3CCCC3=O)c(=O)c2c1C	138.4%
Cc1ccc2nc(-c3ccc4c(c3)OCCO4)cc(C(=O)O)c2c1	-17.4%
CCSc1n[nH]c(=O)[nH]c1=O	-6.5%
CCOC(=O)C1CCCN(c2cc(=O)n(-c3ccccc3Cl)c(=O)[nH]2)C1 (stereo unspecified)	42.6%
CCOC(=O)C1=C(C)NC(=O)C(C(N)=O)C12CCCCC2 (stereo unspecified)	-3.3%
CCCC(=O)NC(C)c1nc2ccccc2n1C(C)C (stereo unspecified)	11.7%
CCOc1ccc(NC(=O)C(C)SC(N)=O)cc1 (stereo unspecified)	-4.7%
C[N+]1(C)C2CC[C@H]1CC(OC(=O)[C@@H](CO)c1ccccc1)C2 (stereo partly specified)	4.6%[5.75 µM]
O=C(Nc1nccs1)c1ccc(COc2ccccc2Br)o1	-14.2%
CCSCCOC(=O)C1=C(C)NC2=C(C(=O)CCC2)C1c1coc2ccccc2c1=O (stereo unspecified)	104.6%
COC(=O)c1ccc(NC(=O)CCN2CCCCC2)cc1	-6.1%
C=CCOc1cccc(C2/C(=C(/O)c3ccc(F)cc3)C(=O)C(=O)N2CCN2CCOCC2)c1 (stereo unspecified)	5.1%
N#CCCn1c(=O)c(-c2ccc(F)cc2)nc2cnc(N3CCOCC3)nc21	-6.7%
COC(=O)C(C)n1cnc2c(nnn2Cc2ccc(Cl)cc2)c1=O (stereo unspecified)	31.6%
CC(C)(C)C(=O)[C@@H]1[C@@H]2C(=O)N(c3ccc4c(c3)OCCO4)C(=O)[C@@H]2C2c3ccccc3C=CN21 (stereo partly specified)	19.3%
COc1ccc(N2CCN(C(=O)CSc3nnc4n3C(C)(C)Cc3ccccc3-4)CC2)cc1	116.8%
Cc1ccc(S(=O)(=O)C2(C(=O)Nc3cccc(F)c3)CC2)cc1	3.98µM*[single pt active]

Some values from above.
AmpC nodet inh result of COc1cccc(-c2cncnc2N(C)Cc2ccco2)c1 stands at 36.0%
AmpC nodet inh result of COc1cc2c(c(OC)c1OC)-c1ccc(O)c(=O)cc1[C@@H](NC(C)=O)CC2 stands at 8.2%
AmpC nodet inh result of CS(=O)(=O)N(CC(=O)NCCSCc1c(F)cccc1Cl)c1ccc2c(c1)OCO2 stands at 35.5%

More compounds.
SMILES	AmpC nodet inh
C=CCn1c(SCc2csc(C)n2)nc2sc3c(c2c1=O)CCCCC3	33.9%
CC(=O)Nc1ccc(NC(=O)c2ccccc2N(C)S(C)(=O)=O)cc1	6.0%
O=C(NCc1ccccc1)c1cccc(NC(=O)c2ccco2)c1	-0.4%
O=C(c1ccccc1)N(CCN1CCOCC1)C1(C(=O)Nc2ccccc2)CCCCC1	36.4%
COC(=O)c1cc(Br)c(=O)n(Cc2ccncc2)c1	-4.9%
CCC(=O)n1nc(-c2ccccc2)nc1NCc1ccccc1	-8.3%
Cc1ccc(NC(=O)C(C)N2C(=O)C3CC=C(Cl)CC3C2=O)cc1 (stereo unspecified)	-2.7%
C[C@@](N)(C(=O)O)c1ccc(S(=O)(=O)O)cc1	32.6%
COC(=O)c1nnn(-c2ccccc2)c1N	1.0%
O=C(COC(=O)C1(c2ccccc2)CC1)N1CCN(c2ccc(F)cc2)CC1	54.0%
O=C(NCc1cccs1)C1CCN(c2nc3ccccc3o2)CC1	12.4%
O=C(O)C1CCCCC1C(=O)Nc1cnn(Cc2ccccc2)c1 (stereo unspecified)	0.7%

Continued, starting with the last four of the part before.
SMILES	AmpC nodet inh
COC(=O)c1nnn(-c2ccccc2)c1N	1.0%
O=C(COC(=O)C1(c2ccccc2)CC1)N1CCN(c2ccc(F)cc2)CC1	54.0%
O=C(NCc1cccs1)C1CCN(c2nc3ccccc3o2)CC1	12.4%
O=C(O)C1CCCCC1C(=O)Nc1cnn(Cc2ccccc2)c1 (stereo unspecified)	0.7%
O=C(NCc1cn2ccsc2n1)Nc1cccc(Cl)c1	-16.7%
CCN(CC)CCCNC(=O)Cn1ncc2c(=O)oc3ccc(C)cc3c21	0.3%
COc1cccc(C2C(C(N)=O)=C(C)Nc3nc(CCCO)nn32)c1OC (stereo unspecified)	5.5%
O=C(CC1OC(=O)c2ccccc21)NC1CCCCC1 (stereo unspecified)	-1.4%
O=C(c1ccccc1)N1CCCOC1c1ccccc1 (stereo unspecified)	9.7%
O=S1(=O)CCC(NCC2CCCO2)C1 (stereo unspecified)	-2.5%
O=C(c1cc2c(=O)oc3ccccc3c2s1)N1CCOCC1	-3.5%
O=S(=O)(O)c1ccc2cc(N=Nc3cc(S(=O)(=O)O)c4cccnc4c3O)ccc2c1	-2.1%[5.75 µM]
CCN1C(=O)C(CC(=O)NCc2ccc(Cl)cc2)N(CC)C1=O (stereo unspecified)	19.4%
Cc1oc(-c2ccc(Cl)cc2)[n+]([O-])c1C	-2.8%
Cc1csc2nc(CSc3ccc(Cl)cc3)cn12	0.4%
COc1ccc(N2Cc3cccc(C(=O)N4CCN(C(=O)c5ccco5)CC4)c3C2=O)cc1	120.7%

Part of the list above in another layout:
Molecule,AmpC nodet inh
O=C(NCc1cn2ccsc2n1)Nc1cccc(Cl)c1,-16.7%
CCN(CC)CCCNC(=O)Cn1ncc2c(=O)oc3ccc(C)cc3c21,0.3%
COc1cccc(C2C(C(N)=O)=C(C)Nc3nc(CCCO)nn32)c1OC (stereo unspecified),5.5%
O=C(CC1OC(=O)c2ccccc21)NC1CCCCC1 (stereo unspecified),-1.4%
O=C(c1ccccc1)N1CCCOC1c1ccccc1 (stereo unspecified),9.7%
O=S1(=O)CCC(NCC2CCCO2)C1 (stereo unspecified),-2.5%
O=C(c1cc2c(=O)oc3ccccc3c2s1)N1CCOCC1,-3.5%

New compounds follow.
SMILES	AmpC nodet inh
COc1cc2c(cc1OC)-c1cc(NC3CCCCCC3)nc(=O)n1CC2	29.4%
COc1ccc(C(=O)NCc2cn3ccsc3n2)cc1OC	4.2%
CC1CCN(C(=O)C2CCN(C(=O)c3cc4sccc4n3Cc3ccc(F)cc3)CC2)CC1	106.3%
O=C(NCC(c1cccnc1)N1CCN(c2ccccc2F)CC1)c1cccc(Cl)c1 (stereo unspecified)	65.6%
COc1ccc(N2CCN(C(=O)Cc3nn(C)c(=O)c4ccccc34)CC2)cc1	33.6%
CCOC(=O)c1[nH]c(C)c(C(=O)N(C)Cc2ccccc2)c1C	26.3%
Cc1cc(C)n(-c2ccc(C(=O)OCn3nnc4ccccc4c3=O)cc2)n1	61.1%
O=C(Nc1nnc(COc2ccccc2)s1)c1ccco1	-0.4%
CCOc1ccccc1N(CC(=O)Nc1ccc(C)cc1)S(C)(=O)=O	46.6%
O=C(CN1CCN(CCC(=O)Nc2ccccc2F)CC1)Nc1ccc(Cl)cc1	72.1%
O=C(NC1CCCC1)C(c1ccccn1)N(C(=O)c1csnn1)C1CC1 (stereo unspecified)	2.4%
O=C(Nn1cnnc1)c1ccccc1-c1ccccc1	0.6%
CC(=O)Nc1cccc(Oc2nc(C)cc(C)c2C#N)c1	9.2%

Bioassay records deposited in PubChem by National Center for Advancing Translational Sciences (NCATS).

Only part of the results is shown; count on the stated rates, not on these rows.
